PKD1 inh: inhibitors of human PKD1 kinase, biochemical, fluorescence polarization. Serine/threonine-protein kinase D1 (Homo sapiens), Q15139. PKD1 kinase fluorescence polarization assay. inhibition, %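 (about 10 µM by stock and volumes)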. actives 0.056% (n = 200,000);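 active means inhibition of 50% or more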;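 further: controls were vehicle for no effect and a reference inhibitor for full effect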
Target sequence (Q15139 whole entry, looked up): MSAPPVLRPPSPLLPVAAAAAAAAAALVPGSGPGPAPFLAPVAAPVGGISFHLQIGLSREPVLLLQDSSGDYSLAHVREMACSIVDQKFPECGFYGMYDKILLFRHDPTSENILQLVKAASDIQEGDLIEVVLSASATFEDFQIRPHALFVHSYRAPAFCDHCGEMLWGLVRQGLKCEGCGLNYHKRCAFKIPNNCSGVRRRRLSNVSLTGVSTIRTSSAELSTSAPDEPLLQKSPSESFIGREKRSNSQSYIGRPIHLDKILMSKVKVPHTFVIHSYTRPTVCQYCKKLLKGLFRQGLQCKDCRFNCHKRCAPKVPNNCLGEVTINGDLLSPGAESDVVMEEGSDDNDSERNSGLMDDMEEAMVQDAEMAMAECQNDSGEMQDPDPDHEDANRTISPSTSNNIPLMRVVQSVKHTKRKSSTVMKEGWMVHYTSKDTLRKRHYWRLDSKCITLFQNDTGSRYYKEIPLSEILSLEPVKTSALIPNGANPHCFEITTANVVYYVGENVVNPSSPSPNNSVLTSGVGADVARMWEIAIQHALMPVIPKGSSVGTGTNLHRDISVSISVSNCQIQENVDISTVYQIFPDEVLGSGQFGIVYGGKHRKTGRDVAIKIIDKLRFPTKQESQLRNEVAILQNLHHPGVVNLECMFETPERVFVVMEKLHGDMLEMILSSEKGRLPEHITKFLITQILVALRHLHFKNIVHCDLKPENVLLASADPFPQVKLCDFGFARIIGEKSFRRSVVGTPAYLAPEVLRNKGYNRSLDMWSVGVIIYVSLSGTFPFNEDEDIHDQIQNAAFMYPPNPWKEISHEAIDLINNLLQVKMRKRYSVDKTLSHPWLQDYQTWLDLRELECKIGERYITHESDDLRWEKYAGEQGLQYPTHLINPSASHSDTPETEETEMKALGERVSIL
HSV augment: enhancers of HSV replication in host cells, fold increase, host cell viability; HSV replication augmentation in cells; maximum fold increase; AID 1956, 2009; actives 0.005% (n = 220,000);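 active means peak rise of 1.5-fold or more in the series; inconclusive means self-fluorescent or not available for retest; tested in PC3 cells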;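 further: first round at 10 µM; read as green reporter fluorescence; hits show the peak of a series up to 25 µM; 1 = signal of infected wells without compound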
Insulin prom inh: inhibitors of insulin promoter-driven GFP, primary screen, imaging, TRM-6 cells (human fetal islet line), eGFP reporter, cell count; reporter expression induced with tamoxifen; inhibition, % at 2 µM; actives 0.9% (n = 130,000); AID 1273, 2008;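 active means inhibition above the mean plus 3 SD, with well images judged a real hit on visual review, cut at about 60% in these data, passing the limit was not always enough; inconclusive means inhibition over the cutoff but images rejected on review; inactive means inhibition not above the cutoff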
GALR2 agonist: GALR2 receptor agonists, primary screen, cell-based | Galanin receptor type 2 (Homo sapiens), O43603 | GALR2-expressing cells, agonist activation read-out | activation, %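 (tested at 5 µM)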 | actives 0.48% (n = 140,000);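 active means above mean plus 3 SD of all compounds, about 5% in these data, not always enough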;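 further: 0% = vehicle buffer wells and 100% = reference agonist at full effect; tested in CHO reporter cells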
RGS16-Gao HTS: modulators of RGS16 binding to Galphao, primary screen, biochemical, human proteins, multiplexed bead flow cytometry; Regulator of G-protein signaling 16 (Homo sapiens) + Guanine nucleotide-binding protein …; bead-based flow cytometry RGS16-Galphao binding, fluorescence; actives lie on both sides; binding response (% of control), % at 10 µM; actives 0.38% (n = 220,000);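 active means below 25% or above 175%, edge rows of some plates excepted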;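 further: Galphao activated by GDP with aluminum fluoride before binding; 100% = wells without compound and 0% = beads without RGS; some results beyond the cut were filed as inactive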
Insulin prom inh cell count: further read-out of Insulin prom inh, marked with its call; normalized cell count, %; measured here: cell count, toxicity; reference of the scale not given here;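 cells exposed to compound for 48 h; stained nuclei by imaging scaled within each plate; lower means fewer cells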
HSV augment primary fold: recorded beside HSV augment, whose call it bears; fold increase; compound at 10 µM; measured here: primary screen fold increase 10 uM; tested in PC3 cells;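 GFP signal in the first replicate; 1 = infected wells without compound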
* = called active by the depositor; i = inactive; ? = inconclusive; nt = not tested or not shown.

Order of results: PKD1 inh, HSV augment, HSV augment primary fold, Insulin prom inh, Insulin prom inh cell count, GALR2 agonist, RGS16-Gao HTS
CC1CCCCC1NC(=O)CN1C(=O)c2cccc(N)c2C1=O (stereo not given)
  0, i, 0.99, nt, nt, nt, 100
CCN(CC)CCOC(=O)c1ccc(Cl)cc1Cl
  9, i, 1, 11, 126, nt, 98
NCCOc1ccc(C2CCCCC2)cc1
  5, i, 0.89, nt, nt, nt, 93
O=C(O)CCCNS(=O)(=O)/C=C/c1ccccc1
  -8, i, 0.97, nt, nt, nt, 103
Cc1ccc(-c2csc(NC(=O)CSc3nc4ccccc4[nH]3)n2)cc1
  -4, i, 0.86, -45, 122, 0.7, 105
CCn1nnnc1-c1ccc(OC)c(S(=O)(=O)N2CCCCC2)c1
  3, i, 0.93, nt, nt, -1.4, 98
CCOC(=O)c1c(-c2ccccc2)c(C(C)=O)c(=O)n(C)c1C
  -16, i, 0.85, nt, nt, nt, 100
COc1ccc(NS(=O)(=O)c2ccc3c(c2)oc(=O)n3C)c(OC)c1
  -4, i, 1, nt, nt, -5.0, 107
COc1ccc(N/C=C/C(=O)c2ccc(OC)c(OC)c2)cc1
  nt, i, 0.96, nt, nt, nt, 92
C=CCN1C(=O)C(C(C)CC)NC1=S (stereo not given)
  3, i, 0.99, 50, 143, -0.8, 90
CCc1ccc(OCC(=O)N(C)C2CCS(=O)(=O)C2)cc1 (stereo not given)
  -6, i, 1, nt, nt, 1.2, 97
CCN(CCn1cccn1)C(=O)CCc1nnc(C2(c3ccc(Cl)cc3)CCC2)o1
  -6, i, 0.94, -5, 111, nt, 105
CC(C)[C@H](NC(=O)c1ccco1)C(=O)OCC(=O)c1ccc2c(c1)NC(=O)CO2
  1, i, 1.1, nt, nt, nt, 134
O=C(O)C1Nc2c(O)cccc2C2C=CCC12 (stereo not given)
  12, i, 0.9, nt, nt, -0.7, 72
Cc1cc(C(F)(F)F)n(-c2nc(C(=O)NNS(=O)(=O)c3ccccc3)cs2)n1
  1, i, 1.1, -36, 114, -1.5, 108
CCOC(=O)C(Cc1ccc(OC)c([N+](=O)[O-])c1)NC(=O)CCC(=O)Nc1ccc(OC)cc1 (stereo not given)
  -5, i, 1, nt, nt, nt, 58
Cc1c(C(=O)NCc2ccco2)sc2nc(-c3ccccc3)cn12
  -2, i, 0.8, nt, nt, -0.9, 102
Cc1[nH]c2ccccc2c1C(=O)COC(=O)Cn1c(C(F)(F)F)nc2ccccc21
  -3, i, 0.94, 7, 104, -0.7, 100
O=C(Nc1nc2ccccc2s1)c1ccc(N2CCCCC2)c([N+](=O)[O-])c1
  -8, i, 0.92, nt, nt, -0.9, 118
O=C(COC(=O)C1=COCCO1)Nc1ccccc1
  0, i, 0.98, nt, nt, nt, 100
Cc1c(CCOC(=O)CC23CC4CC(CC(C)(C4)C2)C3)sc[n+]1CC(=O)c1ccccc1
  -2, i, 0.78, nt, nt, nt, 102
CCCCCCNC1=NCCS1
  -5, i, 1.1, -17, 110, nt, 102
CCN(Cc1cc2ccc(C)cc2[nH]c1=O)C(=O)c1ccncc1
  -14, i, 0.96, nt, nt, -0.8, 101
CCOC(=O)C1CCCN(S(=O)(=O)c2ccc(Br)c(OC)c2)C1 (stereo not given)
  -5, i, 0.94, -22, 175, -1.5, 107
CC(C)CN1C=C2C(=O)C(C)(OC(=O)C3CCCC3)C(=O)C=C2C=C1c1ccsc1 (stereo not given)
  nt, i, 1.1, nt, nt, nt, 96
COC(=O)c1ccc2c(=O)n(CCCCCC(=O)O)c(=S)[nH]c2c1
  -19, i, 1, 36, 118, -3.0, 95
CS(=O)(=O)NCCCc1ccccc1
  -10, i, 0.91, 36, 117, 0.3, 101
Cc1ccc(S(=O)(=O)NC(CN2CCOCC2)=NCCNS(=O)(=O)c2ccccc2)cc1
  -3, i, 1, 31, 78, -0.3, 81
CCOCCCn1c(C)nc2c(c1=O)c1nc3ccccc3nc1n2-c1ccc2c(c1)OCCO2
  nt, i, 0.95, nt, nt, nt, 93
C=C(C)C(=O)Nc1nnc(-c2cccs2)s1
  -5, i, 0.93, 45, 103, 0.6, 106
COc1ccc(CCN2C(=O)C3C4CC(C5C(C(N)=O)=NOC45)C3C2=O)cc1OC (stereo not given)
  -5, i, 0.85, 13, 168, 0.1, 98
CCCOc1ccc(N2CC(C(=O)Nc3ccccc3C(=O)NCc3ccco3)CC2=O)cc1 (stereo not given)
  0, i, 1, 26, 162, -0.7, 98
Cn1c(=O)n(C)c2cc([N+](=O)[O-])c(N3CCN(CCO)CC3)cc21
  9, i, 1.1, nt, nt, nt, 101
Cc1cccc(NC(=S)NC2CCCCCC2)c1C
  -1, i, 0.94, 3, 105, -0.8, 104
Nc1cc(C(=O)OCC(=O)NCc2ccco2)ccc1Cl
  -4, i, 1, 9, 79, -2.4, 98
COCc1cc(Sc2ccc(Br)cc2)nc(-c2ccccc2)n1
  -7, i, 1.1, -38, 90, -3.0, 95
COc1ccc(OCC(=O)N/N=C/c2ccncc2)cc1
  -7, i, 1, nt, nt, nt, 104
C#CCOCCOCCOCCNc1nc(OC)nc(N2CCN(C(=O)[C@H](CCCCN)n3cc(C(N)CO)nn3)CC2)n1 (stereo not given in full)
  nt, i, 0.71, nt, nt, nt, 100
O=C(O)C1SCCN1S(=O)(=O)c1ccc2ccccc2c1 (stereo not given)
  0, i, 0.89, -67, 101, -1.8, 106
CNC(=O)c1sc(=S)n(-c2ccc(OC)cc2)c1N
  7, i, 0.96, nt, nt, nt, 98
CN(C)c1ccc(C2CNC(c3ccc(Cl)c([N+](=O)[O-])c3)c3[nH]c4ccccc4c32)cc1 (stereo not given)
  nt, i, 0.87, nt, nt, nt, 91
Cc1ccc(OCC(=O)NNC(=O)CCC(=O)NCc2ccccc2)cc1
  0, i, 0.86, 2, 172, -0.8, 98
COc1ccc(Cn2nnnc2C(c2ccccc2Cl)N2CCN(C)CC2)cc1 (stereo not given)
  1, i, 0.97, nt, nt, -0.5, 102
Cc1nc(NC(=O)/C=C/c2ccccc2)sc1C(=O)N1CCCCC1
  2, i, 0.91, -13, 86, nt, 68
COc1ccc(Cl)cc1S(=O)(=O)N1CCN(C(=O)c2ccco2)CC1
  3, i, 1, -27, 98, -0.8, 101
COc1cc(C(O)c2nc3ccccc3s2)cc(OC)c1OC (stereo not given)
  nt, i, 1, nt, nt, nt, 98
O=C(O)C1=C[C@@H](C2CCCCC2)C[C@@H](OCc2ccc(CO)cc2)O1
  0, i, 0.76, nt, nt, nt, 98
Cc1cccc2cc(COC(=O)c3ccco3)c(=O)[nH]c12
  4, i, 0.91, nt, nt, -1.5, 101
CCN(CC)S(=O)(=O)c1cc(NS(=O)(=O)c2cccc(Cl)c2)ccc1C
  -5, i, 1.1, -74, 110, -0.2, 101
COc1cc(/C(C)=N/NC(=O)C(O)(c2ccccc2)c2ccccc2)ccc1O
  5, i, 1, -8, 134, nt, 93
Cn1c2c(c(=O)n(C)c1=O)NC1(N2)C(=O)Nc2ccccc21 (stereo not given)
  nt, i, 1, nt, nt, nt, 105
O=c1[nH]cc(COCC(F)CCl)c(=O)[nH]1 (stereo not given)
  nt, i, 0.86, nt, nt, nt, 97
Cc1c(Cl)cccc1N1C(=O)CC(NNC(=O)c2cccs2)C1=O (stereo not given)
  -2, i, 0.96, -33, 152, nt, 110
CC(=O)NCc1cc(-c2ccc(Cl)cc2)no1
  8, i, 1.2, -337, 14, nt, 99
COc1cc(NC(=O)C2=C(N3CCOCC3)/C(=C\c3ccc(Cl)cc3Cl)CC2)cc(OC)c1OC
  0, i, 0.61, 43, 82, -1.1, 99
O=C(CC1C(=O)NCCN1C(=O)Nc1ccc(F)cc1F)Nc1ccc(F)cc1 (stereo not given)
  nt, i, 0.95, nt, nt, nt, 111
Cc1ccc(S(=O)(=O)Nc2cc(C)c(O)c(S(=O)(=O)c3ccc(C)cc3)c2)cc1
  -11, i, 0.82, 3, 82, -1.7, 92
COc1ccc(/C=C/C(=O)N2CCNC(=O)C2)c(OC)c1
  -6, i, 1.1, nt, nt, nt, 107
CCN(CC)CCOC(=O)c1ccc(N/C=C(/C#N)c2nc(-c3ccc(OC)cc3)cs2)cc1
  nt, i, 1, nt, nt, nt, 103
COCCCn1c(=O)/c(=C\c2cccc(OC)c2OC)s/c1=C(/C#N)C(=O)Nc1ccc(C(=O)O)cc1
  nt, i, 0.76, nt, nt, nt, 101

Among those listed so far, four contain fluorine.
Order of results: PKD1 inh, HSV augment, HSV augment primary fold, Insulin prom inh, Insulin prom inh cell count, GALR2 agonist, RGS16-Gao HTS
Cc1cc(C(F)(F)F)n(-c2nc(C(=O)NNS(=O)(=O)c3ccccc3)cs2)n1
  1, i, 1.1, -36, 114, -1.5, 108
Cc1[nH]c2ccccc2c1C(=O)COC(=O)Cn1c(C(F)(F)F)nc2ccccc21
  -3, i, 0.94, 7, 104, -0.7, 100
O=c1[nH]cc(COCC(F)CCl)c(=O)[nH]1 (stereo not given)
  nt, i, 0.86, nt, nt, nt, 97
O=C(CC1C(=O)NCCN1C(=O)Nc1ccc(F)cc1F)Nc1ccc(F)cc1 (stereo not given)
  nt, i, 0.95, nt, nt, nt, 111

(further entries)
Order of results: PKD1 inh, HSV augment, HSV augment primary fold, Insulin prom inh, Insulin prom inh cell count, GALR2 agonist, RGS16-Gao HTS
CC(=O)C1=C(C)N(Cc2ccccc2)C(=O)N[C@H]1c1cccs1
  -4, i, 1.2, -35, 102, -1.1, 94
N/C(=N\OC(=O)c1ccccc1Cl)c1ccccc1
  9, i, 0.81, 23, 75, -2.1, 104
Cc1cc(C)n(-c2nc3c(c(=O)n(C)c(=O)n3C)n2CC(O)COc2ccccc2C)n1 (stereo not given)
  -5, nt, nt, 77*, 131*, -2.5, nt
Cn1nc([N+](=O)[O-])nc1Oc1ccccc1C(=O)N1CCOCC1
  -1, i, 0.86, nt, nt, nt, 103
Cn1cnc([N+](=O)[O-])c1Sc1ccc(C(C)(C)C)cc1
  nt, i, 1.1, nt, nt, nt, 102
O=C(NCc1ccc2c(c1)OCO2)c1ccc2c(=O)n(C3CCCC3)c(=O)[nH]c2c1
  3, i, 0.91, nt, nt, 0.7, 102
COc1cccc(NC(=O)c2cc(-c3ccncc3)nc3c(C)cc(C)cc23)c1
  -5, i, 0.76, nt, nt, nt, 97
COCCNC(=O)CN1CCN(C(c2ccccc2)c2ccccc2)CC1
  -9, i, 0.73, -10, 139, -3.4, 112
CN(C(=S)NC(=O)c1ccccc1Br)C1CCCCC1
  -1, i, 0.8, -223, 121, -3.8, 109
COc1ccccc1CC(=O)Nc1ccc2nc(C)sc2c1
  1, i, 1.1, nt, nt, -0.4, 155
O=C(CN1C(=O)NC2NC(=O)NC21)N/N=C/c1ccc(F)cc1 (stereo not given)
  1, i, 1.1, nt, nt, nt, 101
COc1cc2c(cc1OC)CC(=O)N(C)CC2
  7, i, 0.96, 0, 103, -1.7, 111
CCCc1cn(S(=O)(=O)c2ccc(OC)cc2OC)nc1N
  -14, i, 0.83, 67, 158, -0.6, 94
COc1cccc(C2=CC(c3ccc(C)cc3)n3ncnc3N2)c1 (stereo not given)
  -5, ?, nt, -13, 92, -1.8, 98
COc1ccc(-c2nnn(CC(=O)N(Cc3ccco3)C(C(=O)NCC3CCCO3)c3ccco3)n2)cc1 (stereo not given)
  -6, nt, nt, nt, nt, -0.9, 88
COc1ccc(CNC(=O)CN(Cc2ccccc2)C(=O)c2csnn2)cc1
  3, i, 0.85, 8, 134, -0.7, 99
COc1cccc(OC)c1OCCNCCO
  12, i, 0.9, -19, 79, -0.1, 101
Cc1cccc(Oc2cnn(C(C)(C)C)c(=O)c2Cl)c1
  -5, i, 0.96, 19, 113, -1.7, 103
CCOC(=O)N1CCN(c2c(NCCCOC(C)C)c(=O)c2=O)CC1
  2, i, 0.9, 14, 63, -0.7, 96

Compounds from the list above that have bromine:
Order of results: PKD1 inh, HSV augment, HSV augment primary fold, Insulin prom inh, Insulin prom inh cell count, GALR2 agonist, RGS16-Gao HTS
CCOC(=O)C1CCCN(S(=O)(=O)c2ccc(Br)c(OC)c2)C1 (stereo not given)
  -5, i, 0.94, -22, 175, -1.5, 107
COCc1cc(Sc2ccc(Br)cc2)nc(-c2ccccc2)n1
  -7, i, 1.1, -38, 90, -3.0, 95
CN(C(=S)NC(=O)c1ccccc1Br)C1CCCCC1
  -1, i, 0.8, -223, 121, -3.8, 109

Screens as filed in PubChem.

Outcome played no part in choosing rows; any-hit rate near 1.3%.
